High-throughput results from PubChem.
D2 ag = human D2 receptor agonism in beta-arrestin assay | DiscoveRx PathHunter D2 beta-arrestin, luminescence, 90 min; 100% = 57 uM dopamine signal | 360,000 tested, 0.084% active | activation, % (concentration not given with the values); in the data active = activation above about 40%; inconclusive = about 15% to 40%; inactive = below about 15%; also: compound concentration not given in the record; the text of the record calls up to 30% inactive
Target sequence (P14416 whole entry, looked up): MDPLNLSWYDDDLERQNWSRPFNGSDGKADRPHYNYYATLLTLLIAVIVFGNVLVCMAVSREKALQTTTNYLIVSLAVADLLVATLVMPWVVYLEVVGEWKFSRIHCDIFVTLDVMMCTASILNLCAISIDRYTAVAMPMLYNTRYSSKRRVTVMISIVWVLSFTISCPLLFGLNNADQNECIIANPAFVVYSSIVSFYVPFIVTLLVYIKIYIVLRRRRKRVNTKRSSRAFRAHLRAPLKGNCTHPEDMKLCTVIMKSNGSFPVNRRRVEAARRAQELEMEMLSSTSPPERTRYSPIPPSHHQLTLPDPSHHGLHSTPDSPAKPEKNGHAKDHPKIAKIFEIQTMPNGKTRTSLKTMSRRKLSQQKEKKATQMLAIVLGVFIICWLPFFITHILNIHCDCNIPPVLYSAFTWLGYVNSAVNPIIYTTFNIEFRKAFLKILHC
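DiscoveRx PathHunter D2 beta-arrestin cells (2,100/well) attached overnight, then compound-stimulated 90 min at 37 C in HBSS/10 mM HEPES/0.1% Tween-20 buffer; beta-galactosidase complementation read by luminescence after 1 h at ambient temperature. Dopamine 57 uM final (EC100) as control.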
TRPML1 agonist = activates the human TRPML1 channel; TRPML1-expressing cells, Ca2+ dye fluorescence, FDSS; host cell line not named in the record; reference of the full effect not given here; activation, % (test concentration not listed); 410,000 tested, 0.12% active; AID 624414; in the data active = activation above about 50%; inconclusive = about 30% to 50%; inactive = below about 30%; also: 0% is about no effect; the text of the record puts the active cut at 80%
Target sequence (Q9GZU1 whole entry, looked up): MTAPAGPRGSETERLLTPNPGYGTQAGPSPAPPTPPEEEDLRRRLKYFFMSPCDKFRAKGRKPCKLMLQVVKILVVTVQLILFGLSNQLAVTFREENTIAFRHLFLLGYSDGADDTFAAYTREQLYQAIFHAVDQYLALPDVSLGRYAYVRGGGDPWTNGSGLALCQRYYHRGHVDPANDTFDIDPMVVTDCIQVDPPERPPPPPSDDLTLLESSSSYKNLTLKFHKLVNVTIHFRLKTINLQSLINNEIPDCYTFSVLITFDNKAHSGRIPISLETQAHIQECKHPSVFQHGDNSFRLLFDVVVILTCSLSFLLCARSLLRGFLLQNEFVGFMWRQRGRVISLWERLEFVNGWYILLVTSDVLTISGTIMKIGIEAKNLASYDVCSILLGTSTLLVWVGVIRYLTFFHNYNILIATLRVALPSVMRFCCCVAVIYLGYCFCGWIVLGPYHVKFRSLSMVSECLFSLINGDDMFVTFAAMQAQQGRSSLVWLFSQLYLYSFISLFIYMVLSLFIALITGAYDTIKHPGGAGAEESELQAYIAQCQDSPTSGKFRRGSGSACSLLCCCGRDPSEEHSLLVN
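Tetracycline-induced TRPML1-DL cells are seeded and incubated overnight before loading with a no-wash Ca2+ dye and quencher. Agonist activity is taken from the 110 s fluorescence read following compound pin-transfer on an FDSS, before EC80 54-4 challenge.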
TRPML1 inh = blocks the human TRPML1 channel | 390,000 tested, 0.02% active | TRPML1-inducible cells, Ca2+ dye fluorescence, FDSS; hits give low values; inhibition of EC80 agonist-evoked calcium signal | activity change, negative = inhibition, % (test concentration not listed) | AID 624415 | Q9GZU1; in the data active means activity change below about -50%; inconclusive means about -30% to -50%; inactive means above about -30%;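 also: stimulus is agonist 54-4 at its EC80 concentration; % is scaled to controls: 0 for no effect and ±100 for the full control effect; compound concentration not given in the record; the text of the record puts the active cut at -80%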
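Calcium fluorescence in TRPML1-DL cells induced overnight with Tet: a 110 s read after compound pin addition, then a 110 s antagonist read after challenge with 54-4 at 4 uM final (EC80).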
Six1-Eya2 inh = blocks human Six1 binding to Eya2; Q15475+O00167; AlphaScreen GST-Six1/His-Eya2 binding, biochemical; hits give low values; control for the full effect not named in the record; activity change, % (test concentration not listed); 360,000 tested, 0.56% active; AID 651725; in the data active = activity change below about -65%; inconclusive = about -30% to -65%; inactive = above about -30%; also: % is scaled to controls: 0 for no effect and ±100 for the full control effect; compound concentration not given in the record
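GST-Six1 + His-Eya2 (5X stock: 250/500 nM); Tris pH 8.0, 300 mM NaCl, 0.05% BSA, 0.02% Tween 20; GSH donor/Ni acceptor beads; 1 h 37 °C dark; AlphaScreen readout.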
PINK1 expr mod = changes PINK1 expression; PINK1 immunofluorescence, high-content cytometry, 24 h; Potency, µM (titrated, usually from 76.6 µM), for the others: top-dose activation (PINK1 increase), most hits filed as activators; 410,000 tested, 0.2% active; AID 624263; active = well fitted activation curve with a large enough effect; inconclusive = small, poorly fitted or top-dose-only effect; inactive = flat fitted curve, though single readings scatter; cell line not stated here;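 also: potency is read from the fitted curve at half-maximal effect; % of control where 0% means no effect; nearly all actives have a fitted effect of over 65% in size; a mitochondrial uncoupler was the plate control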
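PINK1 protein level read as immunofluorescence by microplate cytometer in a fixed, stained stable cell line after 24 h exposure to five compound concentrations, with CCCP as control.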
D2 PAM = human D2 receptor positive allosteric modulation; P14416; DiscoveRx D2 beta-arrestin cells, luminescence, 90 min; 100% = 57 uM dopamine signal; potentiation, % (test concentration not listed); 360,000 tested, 0.23% active; AID 624464; active = potentiation of 50% or more; inconclusive = 30% to 50%; inactive = 30% or less;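 also: compound concentration not given in the record; tested on top of an EC20 dose of dopamine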
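D2 cells co-treated with compound plus 50 nM dopamine (EC20) for 90 min at 37 deg C to detect potentiation. Beta-arrestin recruitment was read as enzyme-fragment luminescence after 1 h at ambient temperature. Full response was set by 57 uM dopamine.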
An asterisk follows results filed as active; ? = inconclusive; . = no result given; & = joins results of further samples; [ ] = another dose, or the depositor's remark.

Under each structure – D2 ag	TRPML1 agonist	TRPML1 inh	Six1-Eya2 inh	PINK1 expr mod	D2 PAM
COc1ccc(-c2c[n+](CC(=O)OC3CC(C)CCC3C(C)C)c3n2CCC3)cc1 (stereo not given)
 : -3.7	0.7	17	2	40µM*	-6
COc1ccc(CN2CCNC(=O)C2CC(=O)NCCc2nc(C)c(C)s2)cc1C (stereo not given)
 : -2.2	-0.5	26	-4	-0.5%	-10
O=C(CSc1nnc(NC(=O)c2cc(Br)ccc2Cl)s1)NCC1CCCO1 (stereo not given)
 : -1.3	-0.6	-7	0	0.4%	5
O=C(CN1CCN(Cc2ccccc2)CC1)NC(c1ccccc1)c1ccccc1
 : -7.2	0.1	7	-3	-1.6%	-28
CC(C)c1ccccc1N=C1SCCCN1C(=O)c1cccc(N2C(=O)CCC2=O)c1
 : -2.1	-1.0	-3	4	1.3%	-5
CCOC(=O)c1ccc(NC(=O)COc2coc(CN3CCc4ccccc43)cc2=O)cc1
 : 0.7	-0.1	13	-1	6.4%	13
CC(C)CCNC(=O)C(c1ccco1)N(Cc1ccc(F)cc1)C(=O)c1snc(C(N)=O)c1N (stereo not given)
 : -1.0	0.1	-1	-2	?	-7
CNC(=S)Nc1ccc(C)c(NC(=S)NC)c1
 : -3.6	-1.2	-14	7	-0.7%	3
CCOC(=O)C1(CC)NC(c2ccc(N(C)C)cc2)C2C(=O)N(C)C(=O)C21 (stereo not given)
 : -2.4	-1.0	-10	-4	0.8%	-22
O=C(Nc1cc2c3c(c1)CC(=O)N3CCC2)c1ccc(Br)cc1
 : -5.8	-0.2	-5	-10	1.7%	-38
Clc1ccc2c(c1)CNc1c(ncnc1N1CCOCC1)O2
 : -4.6	-0.9	-16	4	-1.5%	8
CCOc1ccccc1C1N=C(c2ccc(OC)cc2)CC(c2ccccc2O)N1 (stereo not given)
 : -5.0	0.1	-3	-3	0.8%	-8
C=CCn1c(SCC(N)=O)nnc1-c1cccc(Br)c1
 : 0.9	1.0	-4	8	-1.7%	-20
O=C(C[n+]1cccc2ccccc21)c1ccccc1
 : -2.1	1.5	-17	1	2.3%	-20
Cc1ccc(S(=O)(=O)c2cn(C)c3cc(N4CCN(c5ccccc5)CC4)c(F)cc3c2=O)cc1
 : .	-0.5	-22	.	-0.8%	.

4 structures out of the list, arranged by molar mass, largest number first:
Under each structure – D2 ag	TRPML1 agonist	TRPML1 inh	Six1-Eya2 inh	PINK1 expr mod	D2 PAM
CC(C)CCNC(=O)C(c1ccco1)N(Cc1ccc(F)cc1)C(=O)c1snc(C(N)=O)c1N (stereo not given)
 : -1.0	0.1	-1	-2	?	-7
O=C(Nc1cc2c3c(c1)CC(=O)N3CCC2)c1ccc(Br)cc1
 : -5.8	-0.2	-5	-10	1.7%	-38
Clc1ccc2c(c1)CNc1c(ncnc1N1CCOCC1)O2
 : -4.6	-0.9	-16	4	-1.5%	8
CNC(=S)Nc1ccc(C)c(NC(=S)NC)c1
 : -3.6	-1.2	-14	7	-0.7%	3

(next part)
Under each structure – D2 ag	TRPML1 agonist	TRPML1 inh	Six1-Eya2 inh	PINK1 expr mod	D2 PAM
O=C(/C=C/c1cn(CC(O)CN2CCCCCC2)c2ccccc12)c1cccs1 (stereo not given)
 : 13	16	13	6	-3.4%	1
Cc1nn(C)c(C)c1S(=O)(=O)N(CC(=O)Nc1ccc(F)cc1F)c1ccc(C(C)C)cc1
 : .	3.5	-10	.	-0.9%	.
CCn1cc(C(=O)OCC(=O)Nc2cccc(C)c2)c(=O)c2ccc(C)nc21
 : 0.3	0.8	11	0	0.2%	-2
CC(=O)N(C(C)=O)c1nc(-c2ccccc2)cn1/N=C/c1cccc([N+](=O)[O-])c1
 : 0.5	-0.2	5	9	4.4%	2
COc1ccc(C(=O)OCC(=O)c2ccc3[nH]c(=O)[nH]c3c2)c(OC)c1OC
 : 6.1	1.9	2	1	0.1%	-1
O=C(c1cnn(-c2ccc(Cl)cc2)c1)c1ccccc1O
 : -0.7	3.9	10	-1	-0.5%	-8
Cc1cccc(C)c1OCc1nnc(NC(=O)CSc2ccc(Cl)cc2)s1
 : -0.8	0.3	8	33	4.8%	-15
COc1cccc(NS(=O)(=O)c2c(C(=O)N3CCCCCC3)c(C)n(C)c2C)c1
 : -1.8	-0.3	29	-3	1.6%	-7
O=C1CCCCC1Nc1ccc(Cl)cc1 (stereo not given)
 : -9.8	-0.2	-4	-2	-0.6%	-18
COc1ccc(OC)c(C(C)NC(=O)Cn2c(=O)cc(C)c3c(C)nn(-c4ccc(C)cc4)c32)c1 (stereo not given)
 : .	-0.2	13	.	0.9%	.
CCCCN(CC)CCNC(=O)Cn1cnc2sc(C)c(S(=O)(=O)N3CCN(c4ccccc4OC)CC3)c2c1=O
 : .	-0.4	-11	.	1.4%	.
CC(C)c1nc2scc(-c3ccc(Cl)cc3)c2c(=O)n1N
 : 0.5	.	.	-1	1.0%	10
CCCNC(=O)C1CC(=O)N(c2ccc(OCc3ccc(Cl)cc3)cc2)C1 (stereo not given)
 : -1.4	0.9	-16	5	3.2%	-7
CC(C)C(=O)NNC(=O)CSc1nnc(-c2ccccc2)c(-c2ccccc2)n1
 : -3.3	-0.7	0	-2	-0.5%	-4
Nc1ccc2oc(-c3ccccc3Br)nc2c1
 : .	-0.3	28	.	-0.2%	.
CCC1(CC)C(=O)C2=C3C1[C@H](C(=O)OC)CC(C(=O)OC)C[C@H]3[C@H]1C(=O)N(c3ccccc3)C(=O)[C@H]1[C@H]2C (stereo not given in full)
 : -1.8	0.2&0.4	8&9	-10	-0.6%	-8
Cc1nc2sc(C)c(C)n2c(=O)c1S(=O)(=O)N1CCN(c2ccccc2F)CC1
 : .	0.0	4	.	0.0%	.
CCOc1ccccc1N(CC)C(=O)Nc1cn(C)c(=O)c2ccccc12
 : .	0.2	-1	.	-0.3%	.
C/C(=N\O)C(=O)C(CN1CCCCC1)CN1CCCCC1
 : -1.8	0.8	3	-5	12%[38.3 µM]	-13
COc1ccc(-c2nn(-c3ccccc3C)cc2CNC(C)Cn2cncn2)cc1F (stereo not given)
 : -1.8	-0.3	-4	2	1.3%	-3
CC(=O)Nc1ccc(S(=O)(=O)N[C@@H](C)C(=O)NC2CCCc3ccccc32)cc1 (stereo not given in full)
 : -5.7	-0.1	-2	5	-0.1%	-4
COc1ccc2cc(C(=O)NCc3ccccc3)[nH]c2c1
 : 0.2	-0.3	0	8	0.4%	-10
CSc1ccccc1NC(=O)Cc1ccccc1[N+](=O)[O-]
 : 2.6	2.0	-11	0	1.6%	12
FC(F)(F)c1cccc(OCc2nnc3n2CCC3)c1
 : -5.6	0.0	8	2	3.1%	-4
CCCSc1nc(C)c(CC(=O)OCC)c(=O)[nH]1
 : -1.8	0.3	66	-11	1.3%	-18
CC1(C)C(c2ccccc2)=NC(c2ccc(Br)cc2)N1O (stereo not given)
 : -13	-0.4	10	12	1.3%	-24
CC(C)C(=O)Nc1ccc(-c2nnc(-c3ccccc3)o2)cc1
 : 1.7	0.1	13	-1	?	-4
Cc1cc(NC(=O)Nc2c[nH]c(=O)[nH]c2=O)ccc1Br
 : 11	1.1	-4	-2	2.2%	-1
CCOC(=O)c1cc2c(ccn2C)n1CC(=O)N(CC)CC
 : 3.3	-0.5	-1	-3	4.5%	-3
CCCC(C)C1c2c(c(C)c(C)oc2=O)Oc2c(C)c(C)oc(=O)c21 (stereo not given)
 : -0.3	0.4	24	2	0.5%	-1
COc1ccccc1/C=C(\C)C(=O)c1c(C)cc(C)[nH]c1=O
 : 4.4	.	.	14	2.0%	-9
CCCOc1ccc(-c2cc3onc(-c4ccccc4)c3c(=O)n2C)cc1
 : -0.1	0.4	-4	5	1.7%	-4
CCOC(=O)c1sc(NC(=O)CN2C(=O)c3cccc4cccc(c34)C2=O)nc1C
 : -2.0	0.4	16	7	-3.5%[38.3 µM]	-5
Cc1cc(C)c(NC(=O)CSc2nnc(Cc3cccn3C)n2-c2ccc(F)cc2)c(C)c1
 : -0.3	1.2	5	-7	-7.8%[38.3 µM]	-10
COc1ccccc1CNC(=O)CCCn1c(=O)c2ccccc2n(Cc2ccc(F)cc2)c1=O
 : .	2.3	21	.	1.9%	.
Cc1cc(C)nc(OC(C(=O)O)C(OCc2ccccc2)(c2ccccc2)c2ccccc2)n1 (stereo not given)
 : 3.8	.	.	3	1.1%	1
COC(=O)c1cc(CSc2nc3ccc(C)cc3[nH]2)oc1C
 : 1.2	1.6	-6	-9	-0.5%	0
CC1Cc2ccccc2N1C(=O)CN1C(=O)C(=O)N(Cc2ccccc2)C1=O (stereo not given)
 : -0.3	0.5	18	13	1.4%	0
CC1(C(=O)NS(=O)(=O)c2ccc(C#N)cc2)CCN1C(=O)Cc1cccc2ccccc12 (stereo not given)
 : -4.5	-1.0	.	0	0.2%	-2
CC(NC(=O)c1ccc(Cl)cc1Cl)C(c1ccccc1)N1CCOCC1 (stereo not given)
 : -12	2.9	-10	4	1.3%	-8
Cc1ccc(C(=O)N/C(=C\c2cccs2)C(=O)N2CCN(C)CC2)cc1C
 : -3.3	-0.3	11	2	-1.1%	-36
Cc1cccc(NC(=S)N2CCN(C(=O)C3CCCO3)CC2)c1 (stereo not given)
 : 2.7	0.3	-12	5	0.4%	-5
COc1ccccc1C(=O)Nc1ccc(S(=O)(=O)N2CCN(C)CC2)cc1
 : 2.5	-0.2	-4	-19	1.4%	-19
COc1ccc(-c2nc(SCC(=O)c3ccc(OC)c(Br)c3)n[nH]2)cc1
 : .	2.2	24	.	15%	.
CCc1ccc(NC(=O)CN2C(=O)CSc3ccc(S(=O)(=O)N(C)C)cc32)cc1
 : .	-0.5	35	.	0.5%	.
Cc1cc(C)c(S(=O)(=O)N2CCN(C(=O)CCOc3ccccc3C)CC2)c(C)c1
 : -1.1	1.9	44	0	0.2%	3
COc1cccc(C(=O)N2c3cc(C)ccc3C(C)(c3ccccc3)CC2(C)C)c1 (stereo not given)
 : .	0.6	74	.	4.8%	.
CC(=O)NS(=O)(=O)c1ccc(N=NN2CCOCC2)cc1
 : -4.6	-0.5	32	4	2.9%	-12
Cc1ccccc1-c1nc2c(s1)CCc1onc(-c3cccc([N+](=O)[O-])c3)c1-2
 : -2.2	0.3	1	3	1.2%	-6
COc1ccc(-c2cc(C(F)(F)F)nc(SCCC(=O)Nc3c(C)cccc3C)n2)cc1
 : .	2.8	-1	.	0.1%	.
COc1ccc(S(=O)(=O)N(CC(=O)Nc2cc(Cl)ccc2C)Cc2ccccc2)cc1OC
 : .	1.0	56	.	0.4%	.
CCCN(CCC)C(=O)Cn1c(=O)n(-c2ccc(Cl)cc2)c(=O)c2c3c(sc21)CCCCC3
 : .	-0.9	-19	.	1.2%	.
Oc1c(C(c2ccccc2)N2CCCC2)sc2nc(-c3ccco3)nn12 (stereo not given)
 : .	1.8	20	.	-1.3%	.
CCc1ccc(NC(=O)Cn2c(=O)n(Cc3ccc4c(c3)OCO4)c(=O)c3oc4ccccc4c32)cc1
 : .	-0.6	0	.	?	.
COC(=O)/C=C/COc1ccccc1[N+](=O)[O-]
 : 3.0	0.2	?	-2	-1.9%	-8
